Source: PubChem BioAssay
INS promoter inh – inhibitors of insulin promoter-driven GFP, primary screen, imaging, TRM-6 cells (human fetal islet line), eGFP reporter, cell count; reporter expression induced with tamoxifen; inhibition, % at 2 µM; 0.9% of 130,000 active;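 active means inhibition above the mean plus 3 SD, with well images judged a real hit on visual review, cut at about 60% in these data, passing the limit was not always enough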
HSV replic up – enhancers of HSV replication in host cells, fold increase, host cell viability | HSV replication augmentation in cells | maximum fold increase | 0.005% of 220,000 active | AID 1956, 2009;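 active means peak rise of 1.5-fold or more in the series; tested in PC3 cells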;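 further: first round at 10 µM; read as green reporter fluorescence; hits show the peak of a series up to 25 µM; 1 = signal of infected wells without compound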
GALR2 ag – GALR2 receptor agonists, primary screen, cell-based; 0.48% of 140,000 active; AID 803, 2007; GALR2-expressing cells, agonist activation read-out; Galanin receptor type 2 (Homo sapiens), O43603; activation, %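 (tested at 5 µM)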;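 active means above mean plus 3 SD of all compounds, about 5% in these data, not always enough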;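 further: 0% = vehicle buffer wells and 100% = reference agonist at full effect; tested in CHO reporter cells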
Target sequence (O43603 whole entry, looked up): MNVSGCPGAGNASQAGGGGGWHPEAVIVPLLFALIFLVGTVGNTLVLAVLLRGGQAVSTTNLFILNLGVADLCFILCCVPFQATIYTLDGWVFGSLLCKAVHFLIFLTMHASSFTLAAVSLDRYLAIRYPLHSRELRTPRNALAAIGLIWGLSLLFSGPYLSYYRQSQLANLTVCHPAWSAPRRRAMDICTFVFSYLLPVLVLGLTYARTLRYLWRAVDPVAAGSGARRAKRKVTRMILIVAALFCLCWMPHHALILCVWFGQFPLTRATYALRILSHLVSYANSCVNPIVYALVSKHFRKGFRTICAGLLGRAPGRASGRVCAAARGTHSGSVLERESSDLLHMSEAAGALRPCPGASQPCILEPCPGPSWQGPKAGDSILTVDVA
RGS16-Gao – modulators of RGS16 binding to Galphao, primary screen, biochemical, human proteins, multiplexed bead flow cytometry | Regulator of G-protein signaling 16 (Homo sapiens) + Guanine nucleotide-binding protein … | bead-based flow cytometry RGS16-Galphao binding, fluorescence; actives lie on both sides | binding response (% of control), % at 10 µM | 0.38% of 220,000 active | AID 1441, 2008;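 active means below 25% or above 175%, edge rows of some plates excepted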;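 further: Galphao activated by GDP with aluminum fluoride before binding; 100% = wells without compound and 0% = beads without RGS; some results beyond the cut were filed as inactive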
Target sequence (O15492 whole entry, looked up): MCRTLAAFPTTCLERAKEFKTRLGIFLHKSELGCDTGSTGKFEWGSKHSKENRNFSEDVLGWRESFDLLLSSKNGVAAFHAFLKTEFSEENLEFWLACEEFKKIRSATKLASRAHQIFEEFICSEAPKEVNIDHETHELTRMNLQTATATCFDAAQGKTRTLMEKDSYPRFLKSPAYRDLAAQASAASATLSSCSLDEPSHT
Target sequence (P09471 whole entry, looked up): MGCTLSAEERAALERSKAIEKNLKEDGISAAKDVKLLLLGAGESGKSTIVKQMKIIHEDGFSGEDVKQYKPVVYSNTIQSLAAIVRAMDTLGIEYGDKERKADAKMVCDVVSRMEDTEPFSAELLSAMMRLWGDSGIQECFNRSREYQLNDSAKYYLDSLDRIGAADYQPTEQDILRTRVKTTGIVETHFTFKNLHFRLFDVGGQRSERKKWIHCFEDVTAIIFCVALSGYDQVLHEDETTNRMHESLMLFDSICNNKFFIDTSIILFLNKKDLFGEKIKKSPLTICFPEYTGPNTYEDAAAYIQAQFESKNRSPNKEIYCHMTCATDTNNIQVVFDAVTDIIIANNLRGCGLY
PKD1 inh – inhibitors of human PKD1 kinase, biochemical, fluorescence polarization | 0.056% of 200,000 active | inhibition, %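 (about 10 µM by stock and volumes)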 | PKD1 kinase fluorescence polarization assay;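 active means inhibition of 50% or more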;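 further: controls were vehicle for no effect and a reference inhibitor for full effect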
INS promoter inh cell count – recorded beside INS promoter inh, whose call it bears; normalized cell count, %; measured here: cell count, toxicity; reference of the scale not given here;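 cells exposed to compound for 48 h; stained nuclei by imaging scaled within each plate; lower means fewer cells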
HSV replic up primary fold – further read-out of HSV replic up, marked with its call; fold increase; compound at 10 µM; measured here: primary screen fold increase 10 uM; tested in PC3 cells;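 GFP signal in the first replicate; 1 = infected wells without compound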
* = called active by the depositor; i = inactive; nt = no result given. Rows were taken by chance, and some 1.1% of all compounds hit somewhere here.

SMILES | INS promoter inh | INS promoter inh cell count | HSV replic up | HSV replic up primary fold | GALR2 ag | RGS16-Gao | PKD1 inh
COC(=O)CCCNC(=O)c1ccccn1 | -67 | 119 | i | 0.94 | nt | 113 | 8
Cc1nn(Cc2cccc(F)c2)c(C)c1NC(=O)c1c([N+](=O)[O-])c(C)nn1C | 0 | 94 | i | 1.1 | -0.1 | 108 | 1
Cc1ccc2cc(CN(CCCO)S(=O)(=O)c3cccc4nsnc34)c(=O)[nH]c2c1 | -42 | 115 | i | 0.78 | 0.2 | 100 | -5
Nn1c(SCC(=O)NC2CCCCC2)nnc1-c1ccc(Cl)cc1 | -16 | 118 | i | 1 | -1.7 | 109 | -5
COc1ccc(S(=O)(=O)NCc2cccs2)cc1 | 22 | 68 | i | 0.86 | -0.2 | 91 | 6
COC(=O)c1c(NC(NC(=O)CC(C)C)C(Cl)(Cl)Cl)sc2c1CCC2 (stereo unspecified) | -30 | 109 | i | 0.99 | -1.5 | 97 | 3
C=CCN1C(=O)C(CC(=O)O)SC1=Nc1ccc(C)cc1 (stereo unspecified) | nt | nt | i | 1.4 | nt | 115 | -3
C#CC(=O)N(c1ccc(OC)cc1OC)C(C(=O)NC1CCCC1)c1cccs1 (stereo unspecified) | -388 | 3 | i | 0.65 | nt | 107 | 1
CC(/C=N/Nc1nc(N2CCCCC2)nc(N2CCCCC2)n1)=C\c1ccccc1 | nt | nt | i | 1.3 | -3.9 | 102 | -3
O=C1Nc2ccc(Br)cc2C1=Nc1cccnc1 | nt | nt | i | 1 | nt | 92 | nt

Compound profiles (already shown). Order of values: INS promoter inh, INS promoter inh cell count, HSV replic up, HSV replic up primary fold, GALR2 ag, RGS16-Gao, PKD1 inh
Nn1c(SCC(=O)NC2CCCCC2)nnc1-c1ccc(Cl)cc1 is listed with -16, 118, i, 1, -1.7, 109, -5
O=C1Nc2ccc(Br)cc2C1=Nc1cccnc1 is listed with nt, nt, i, 1, nt, 92, nt
COC(=O)CCCNC(=O)c1ccccn1 is listed with -67, 119, i, 0.94, nt, 113, 8
C=CCN1C(=O)C(CC(=O)O)SC1=Nc1ccc(C)cc1 (stereo unspecified) is listed with nt, nt, i, 1.4, nt, 115, -3
Cc1nn(Cc2cccc(F)c2)c(C)c1NC(=O)c1c([N+](=O)[O-])c(C)nn1C is listed with 0, 94, i, 1.1, -0.1, 108, 1

Remaining list, next part:
SMILES | INS promoter inh | INS promoter inh cell count | HSV replic up | HSV replic up primary fold | GALR2 ag | RGS16-Gao | PKD1 inh
Cc1cc(N2CCN(C)CC2)nc(-c2ccccc2O)n1 | nt | nt | i | 0.94 | nt | 100 | nt
Cc1ccc(C(c2nnnn2CS(=O)(=O)c2ccc(C)cc2)N2CCN(c3ncccn3)CC2)cc1 (stereo unspecified) | nt | nt | i | 0.93 | -1.8 | 107 | -1
O=C(CCC1CCCCC1)Nc1c2c(nn1-c1ccc(F)cc1)CS(=O)(=O)C2 | 10 | 80 | i | 0.91 | -0.3 | 100 | -10
COc1cccc(C(=O)c2ncc(C(F)(F)F)cc2Cl)c1 | nt | nt | i | 0.94 | nt | 85 | 3
CCN(CC)S(=O)(=O)N1CCC(C(=O)NCCN2CCOCC2)CC1 | nt | nt | i | 1.1 | -1.6 | 105 | -9
Clc1cccc(Cl)c1/C=N/Nc1c(Cl)cncc1Cl | nt | nt | i | 0.74 | nt | 98 | nt
COC(=O)Nc1ccc(S(=O)(=O)N2CCCCCC2)cc1 | 50 | 139 | i | 0.97 | -0.7 | 105 | 2
OC(COc1ccc(-c2ccccc2)cc1)CN1CCOCC1 (stereo unspecified) | nt | nt | i | 0.9 | nt | 102 | -2
CC(=O)COc1cc(C)cc2oc(=O)cc(-c3ccccc3)c12 | nt | nt | i | 0.96 | nt | 96 | -2
COc1ccc(OC)c(/C=C/C(=O)OCC(=O)Nc2cccc(Oc3ccccc3)c2)c1 | 42 | 100 | i | 0.99 | -0.8 | 94 | -1
CC(C)=N/N=C1/NC(=O)C(CC(=O)Nc2cc(Cl)ccc2C)S1 (stereo unspecified) | -33 | 93 | i | 0.97 | 0.0 | 105 | -9
Cc1cccc2c(=O)c(C(=O)NCCCN3CCOCC3)c[nH]c12 | 10 | 87 | i | 1 | -1.1 | 95 | 0
CCC1CCCCN1C(=S)Nc1ccc(SC(F)F)cc1 (stereo unspecified) | nt | nt | i | 1.1 | -0.2 | 103 | -8
Cc1ccc(Nc2nc(-c3c(C)nc4ncccn34)cs2)cc1 | -54 | 9 | i | 0.59 | -1.9 | 100 | -19
CCOC(=O)c1csc(-c2ccc([N+](=O)[O-])cc2)n1 | nt | nt | i | 1.1 | nt | 93 | -7
COc1ccc(NC(=S)NNC(=O)Cn2nc([N+](=O)[O-])cc2C)cc1 | -15 | 121 | i | 1.4 | -3.2 | 106 | 3
COc1ccc(NC(=O)c2sc(Cl)nc2-c2ccccc2)cc1 | 16 | 100 | i | 0.81 | -1.0 | 102 | 5
OC1(c2ccc3c(c2)OCO3)CCN(Cc2ccc(F)cc2)CC1 | nt | nt | i | 0.92 | nt | 100 | nt
COCC1CCCN(Cc2nc(-c3ccc4c(c3)OCO4)no2)C1 (stereo unspecified) | nt | nt | i | 1 | nt | 89 | -1
CC(C)N1CC(O)=C(c2nc3ccccc3c(=O)[nH]2)C1=N | 23 | 84 | i | 1 | -3.7 | 105 | -4
CCOc1cc(Cl)c(NC(=O)CC)cc1OCC | -36 | 106 | i | 1 | -0.4 | 99 | -5
CC(C)[C@@H]1N[C@]2(C(=O)Nc3ccccc32)[C@@H]2C(=O)N(c3cccc(C(F)(F)F)c3)C(=O)[C@@H]21 | -107 | 52 | i | 0.81 | -2.4 | 103 | 18
COc1ccccc1OCCCOc1ccc(C)cc1Br | -10 | 142 | i | 1 | -1.6 | 114 | 0
COc1ccc(C2C(C(N)=O)=C(C)Nc3nc(-c4ccccc4OC)nn32)cc1OC (stereo unspecified) | nt | nt | i | 0.9 | 0.0 | 99 | -15
Cn1c(CC(=O)Nc2ccc(F)cc2)c(Sc2ccccc2)c2ccccc21 | nt | nt | i | 0.9 | -0.9 | 102 | 1
Cc1nc2ccccn2c1C(=O)/C=C/c1ccc(F)cc1 | nt | nt | i | 0.64 | 0.4 | 187 | 5
COc1ccc(OC)c(NC(=O)CSc2ccccc2)c1 | -38 | 57 | i | 0.79 | -0.2 | 86 | -4
COc1ccc(-c2cn(-c3ccc(C)cc3)c(=O)n2CC(=O)Nc2ccc(OC)cc2OC)cc1 | 42 | 152 | i | 0.89 | -1.3 | 100 | 1
CC1=Nn2c(nnc2-c2cccs2)SC1 | -8 | 70 | i | 1 | -0.8 | 107 | 0
COc1ccc(-c2[nH]ncc2CN(C)Cc2c(C)n[nH]c2C)c(OC)c1 | nt | nt | i | 0.83 | nt | 92 | -2
COc1ccc(NC(=O)C(NC(=O)Cc2cccs2)c2ccccc2)cc1 (stereo unspecified) | nt | nt | i | 1.1 | -1.1 | 86 | 6
CC(=O)Nc1ccc(OC(=O)c2cc3cc(Br)ccc3oc2=O)cc1 | nt | nt | i | 1.1 | 0.5 | 101 | 0
CCOc1ccc(Oc2ccc(C(F)(F)F)cc2N)cc1 | -21 | 130 | i | 1 | -0.8 | 91 | -6
COc1cc2[nH]c(=S)nc(NCc3cccs3)c2cc1OC | nt | nt | i | 0.88 | nt | 98 | -9
O=C(COC(=O)c1ccc(S(=O)(=O)N2CCCC2)cc1)Nc1cccnc1Cl | -17 | 199 | i | 0.91 | nt | 96 | -7
CC1CCC/C(=N\NC(=O)Nc2ccccc2)C1 (stereo unspecified) | 25 | 93 | i | 0.97 | -2.8 | 100 | -3
CC1Cc2ccccc2N1C(=O)CSc1nnc2sc3ccccc3n12 (stereo unspecified) | -21 | 216 | i | 0.82 | 0.0 | 101 | 0
COCCNC(=O)c1ccc(NC(=O)C2(c3ccccc3)CCCC2)cc1 | nt | nt | i | 0.97 | nt | 106 | 1
CC1=CC(c2ccccc2)NC(=S)N1 (stereo unspecified) | 13 | 59 | i | 0.97 | -0.2 | 50 | -4
Cc1ccc(C)c(-n2c(-c3csc(C)c3C)n[nH]c2=S)c1 | -15 | 103 | i | 0.9 | -0.9 | 94 | -13
COc1ccc(C(C(=O)NC2CCCCC2)N(CC2CCCO2)C(=O)CNC(=O)c2ccco2)cc1 (stereo unspecified) | nt | nt | i | 0.95 | 0.2 | 92 | 2
Cc1cc(OCc2cccc(Cl)c2)c(C)cc1CN1CCOCC1 | nt | nt | i | 1.1 | nt | 98 | 4
O=C(Oc1nsnc1N1CCOCC1)N1CCCCC1 | -22 | 51 | i | 0.88 | 0.1 | nt | -12
CC1(C(=O)NC2CCCCC2)CCC(=O)N1Cc1cccnc1 (stereo unspecified) | nt | nt | i | 0.97 | -0.8 | 106 | -15
COCc1nnc(NC(=O)CCC2CCCCC2)s1 | 0 | 111 | i | 1.2 | -2.2 | 98 | -7
CC(=O)/C=C(\C)Nc1c(C)n(C)n(-c2ccccc2)c1=O | -21 | 99 | i | 0.93 | nt | 137 | -2
CCOC(=O)N1CCN(c2nc3ccc(C(=O)c4ccccc4)cc3n3cnnc23)CC1 | nt | nt | i | 0.81 | nt | 91 | nt
Cc1ccc(S(=O)(=O)NCCc2ccncc2)cc1 | -167 | 82 | i | 0.96 | -2.5 | 103 | -4
C/C(=N\NC(=O)CSc1nc2ccccc2c(=O)n1-c1ccccc1C)c1cccs1 | 11 | 99 | i | 0.86 | -1.4 | 101 | 10
Cc1c(C#N)c2ccccc2n1CC(=O)NCc1cccnc1 | -19 | 69 | nt | nt | 0.0 | 102 | -4

Shown with each value named: part of the list above.
structure: CC(=O)COc1cc(C)cc2oc(=O)cc(-c3ccccc3)c12
  INS promoter inh: nt; INS promoter inh cell count: nt; HSV replic up: i; HSV replic up primary fold: 0.96; GALR2 ag: nt; RGS16-Gao: 96; PKD1 inh: -2

structure: CC1Cc2ccccc2N1C(=O)CSc1nnc2sc3ccccc3n12 (stereo unspecified)
  INS promoter inh: -21; INS promoter inh cell count: 216; HSV replic up: i; HSV replic up primary fold: 0.82; GALR2 ag: 0.0; RGS16-Gao: 101; PKD1 inh: 0

structure: CC1=Nn2c(nnc2-c2cccs2)SC1
  INS promoter inh: -8; INS promoter inh cell count: 70; HSV replic up: i; HSV replic up primary fold: 1; GALR2 ag: -0.8; RGS16-Gao: 107; PKD1 inh: 0

Carrying on:
SMILES | INS promoter inh | INS promoter inh cell count | HSV replic up | HSV replic up primary fold | GALR2 ag | RGS16-Gao | PKD1 inh
Nc1cc(S(=O)(=O)N2CCOCC2)ccc1Oc1ccc(F)cc1 | nt | nt | i | 0.97 | nt | 98 | -1
O=C1C=C(NCc2ccc(Cl)cc2)CC(c2ccco2)C1 (stereo unspecified) | nt | nt | i | 0.83 | -0.7 | 118 | 3
Cn1cccc1/C=C1\SC(=O)N(CC(=O)Nc2ccc(F)cc2)C1=O | nt | nt | i | 0.98 | nt | 106 | 7
COc1ccc(S(=O)(=O)N(C)CC(=O)Nc2ccccc2OC)cc1 | -7 | 96 | i | 0.89 | -2.3 | 108 | 0
O=C(O)C1CCC1C(=O)Nc1nc(-c2ccc(Cl)s2)cs1 (stereo unspecified) | nt | nt | i | 0.83 | nt | 108 | nt
C/C(N)=C(/C#N)C(=O)CSc1cc(C)c2cc(C)cc(C)c2n1 | nt | nt | i | 0.94 | nt | 97 | 5
Cc1noc(NC(=O)c2ccc(Cl)cc2)c1Cl | nt | nt | i | 1 | nt | 97 | -6
CC(C)CNC(=O)CN1C(=O)NC(Cc2c[nH]c3ccccc23)C1=O (stereo unspecified) | -40 | 118 | i | 0.89 | nt | 100 | -5
COCCSc1nnc(NC(=O)C2CCCO2)s1 (stereo unspecified) | nt | nt | i | 0.75 | -2.2 | 108 | -3
COc1cccc(-c2ccc(C#N)c(OC(=O)c3ccc(Cl)cc3)n2)c1 | -21 | 153 | i | 0.94 | -1.7 | 101 | -7
CCOC(=O)c1c(NC(=O)CN2C(=O)c3ccccc3C2=O)sc(Cc2ccc3c(c2)OCO3)c1C | 27 | 89 | i | 0.94 | -0.3 | 101 | -7
O=C(COC(=O)CNC(=O)c1ccco1)Nc1ccc(F)cc1 | -9 | 146 | i | 0.93 | nt | 93 | -8
COc1cccc(CC2CC(=O)N(c3ccc4c(C)cc(=O)oc4c3)C2=O)c1 (stereo unspecified) | 27 | 105 | i | 0.82 | nt | 99 | -4
O=C(Nc1ccc(Cl)cc1)Nc1nnc(Cc2ccc([N+](=O)[O-])cc2)s1 | nt | nt | i | 0.81 | -1.7 | 104 | 3
COc1ccc(S(=O)(=O)NC(CC(=O)NCc2ccccc2OC)c2ccco2)cc1 (stereo unspecified) | nt | nt | i | 0.97 | -1.1 | 98 | -6
Cc1oc(-c2cccs2)nc1CN1CCN(C2CCCC2)C(CCO)C1 (stereo unspecified) | nt | nt | i | 0.7 | nt | 128 | 6
